High-throughput results deposited in PubChem BioAssay by National Center for Advancing Translational Sciences (NCATS).
gsp agonist – gsp mutant agonism | gsp mutant cells, cAMP HTRF, 30 min; control for the full effect not named in the record | Potency, µM (series often up to 76.9 µM), for inactives: at the top dose activation (cAMP increase), actives largely listed as activators | 340,000 tested, 0.13% active | AID 624287; active = well fitted activation curve with a large enough effect; inconclusive = small, poorly fitted or top-dose-only effect, or another doubt; inactive = no such curve, though single readings can be large or run the other way; cell line not stated here;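 note: phosphodiesterase inhibitor Ro 20-1724 added with compounds to block cAMP breakdown; potency is the fitted concentration of half-maximal effect; nearly all actives have a fitted effect of over 60% in size; about a fifth of the inactives were tested at one dose only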
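Cells stably selected in G418 were plated at 2000/well, grown 16-24 hr, then given compounds in DMSO with the PDE inhibitor […] (300 uM solution added) for 30 min at 37C; cAMP was read by HTRF.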
ClpP mod – qHTS Assay for Activators of ClpP | ATP-dependent Clp protease proteolytic subunit (Bacillus subtilis (strain 168)), P80244 | purified B. subtilis ClpP, FRET peptide cleavage, 20 min | Potency, µM (series often up to 57.5 µM), for the others: at the top dose activity change, negative = active | 340,000 tested, 1.9% active; active = well fitted falling curve with a large enough effect; inconclusive = small, poorly fitted or top-dose-only effect; inactive = no such curve, though single readings can be large or run the other way; note: potency is the fitted concentration of half-maximal effect; the source files actives as falling curves though it sought activators and does not explain the sign; nearly all actives have a fitted effect of over 65% in size; many hits overshoot -100%
Target sequence (P80244 whole entry, looked up): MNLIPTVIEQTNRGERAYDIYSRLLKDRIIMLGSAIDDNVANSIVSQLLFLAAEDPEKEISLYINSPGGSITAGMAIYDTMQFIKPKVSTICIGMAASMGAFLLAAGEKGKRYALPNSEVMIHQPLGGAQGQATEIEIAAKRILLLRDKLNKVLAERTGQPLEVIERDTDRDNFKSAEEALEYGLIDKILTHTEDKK
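FRET quenching reversal measured ClpP activation: 10 microg/mL B. subtilis ClpP at pH 8 with the FRET-FV decapeptide, read at 430 nm after 320 nm excitation. The 20-min minus 0-min signal was scaled between DMSO/no-enzyme wells and ADEP (5.8 microM final).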
Menin MLL FP FL – inhibitors of human menin-MLL interaction, wild-type MLL peptide. Fluorescence polarization, fluorescein-MLL peptide displacement from menin. 290,000 tested, under 10 active. FP activity change, % at 61.4 µM. AID 1766; inconclusive = falling polarisation curve, or a change in total fluorescence; inactive = total fluorescence flat and polarisation flat or rising; no compound was filed as active; the % refers to the polarisation; negative = inhibition;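 note: % of control where 0% means no effect; inhibitors lower the polarisation; unlabelled MLL peptide was the positive control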
D2 PAM – human D2 receptor positive allosteric modulation. P14416. DiscoveRx D2 beta-arrestin cells, luminescence, 90 min; 100% = 57 uM dopamine signal. AID 624464. potentiation, % (concentration not given with the values). 360,000 tested, 0.23% active; active = potentiation of 50% or more; inconclusive = 30% to 50%; inactive = 30% or less;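 note: compound concentration not given in the record; tested on top of an EC20 dose of dopamine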
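PathHunter beta-arrestin assay in DiscoveRx D2 cells. Compounds were added with an EC20 of dopamine (50 nM final) for 90 min at 37 deg C. Luminescence was read 1 h after detection reagent, with 57 uM dopamine as the EC100 control.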
gsp antag – antagonists of gsp mutant (McCune-Albright syndrome); 340,000 tested, 0.4% active; Potency, µM (top dose mostly 76.9 µM), without a hit: at the top dose activity change, negative = inhibition, actives largely listed as inhibitors; AID 624288; gsp-mutant cells, cAMP HTRF, 30 min; control for the full effect not named in the record; active = falling curve of any shape with a large fitted effect; inconclusive = falling curve, mostly with a smaller effect; inactive = flat or rising curve; cell line not stated here;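 note: intracellular cAMP measured with PDE inhibitor Ro 20-1724 present during compound exposure; potency is the fitted concentration of half-maximal effect; % is set by controls: 0 for no effect and ±100 for the full control effect; nearly all actives have a fitted effect of over 65% in size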
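G418-selected cells were plated in DMEM/10% FBS for 16-24 h at 37C, then treated with compounds plus the PDE inhibitor […] (300 uM solution added) for 30 min at 37C. Intracellular cAMP was measured by HTRF after 30 min lysis at room temperature.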
Sfp PPTase inh – blocks B. subtilis Sfp PPTase activity | Q9F4F7 | 310,000 tested, 3.5% active | Biochemical Sfp PPTase activity, qHTS | Potency, µM, inactives show max response, negative = inhibition, hits mostly inhibitors | AID 1490; active = well fitted inhibition curve with a large enough effect; inconclusive = small, poorly fitted or top-dose-only effect, or another doubt; inactive = no such curve, though single readings can be large or run the other way;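 note: the enzyme is Sfp with the accession as filed and its product quenches rhodamine fluorescence; potency is the fitted concentration of half-maximal effect; 0% = enzyme reaction without inhibitor and -100% = no enzyme wells; top concentration of the series not given in the record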
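With Hepes-Na pH 7.6 buffer containing 10 mM MgCl2, Sfp (15 nM) modified BHQ-2-YbbR (12.5 uM) using rhodamine-CoA (5 uM). Two reads 30 minutes apart at 525/598 nm yielded each well's rate.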
TRPV1 PAM – potentiators of human vanilloid receptor 1 (TRPV1); TRPV1-expressing cells, Fluo-8 calcium influx, capsaicin EC20 potentiation; host cell line not named in the record; control for the full effect not named in the record; potentiation, % at 8.33 µM; 320,000 tested, 0.02% active; Q8NER1; AID 540277; active means potentiation above 80%; inconclusive means 30% to 80%; inactive means below 30%; note: 0% is about no effect
Target sequence (Q8NER1 whole entry, looked up): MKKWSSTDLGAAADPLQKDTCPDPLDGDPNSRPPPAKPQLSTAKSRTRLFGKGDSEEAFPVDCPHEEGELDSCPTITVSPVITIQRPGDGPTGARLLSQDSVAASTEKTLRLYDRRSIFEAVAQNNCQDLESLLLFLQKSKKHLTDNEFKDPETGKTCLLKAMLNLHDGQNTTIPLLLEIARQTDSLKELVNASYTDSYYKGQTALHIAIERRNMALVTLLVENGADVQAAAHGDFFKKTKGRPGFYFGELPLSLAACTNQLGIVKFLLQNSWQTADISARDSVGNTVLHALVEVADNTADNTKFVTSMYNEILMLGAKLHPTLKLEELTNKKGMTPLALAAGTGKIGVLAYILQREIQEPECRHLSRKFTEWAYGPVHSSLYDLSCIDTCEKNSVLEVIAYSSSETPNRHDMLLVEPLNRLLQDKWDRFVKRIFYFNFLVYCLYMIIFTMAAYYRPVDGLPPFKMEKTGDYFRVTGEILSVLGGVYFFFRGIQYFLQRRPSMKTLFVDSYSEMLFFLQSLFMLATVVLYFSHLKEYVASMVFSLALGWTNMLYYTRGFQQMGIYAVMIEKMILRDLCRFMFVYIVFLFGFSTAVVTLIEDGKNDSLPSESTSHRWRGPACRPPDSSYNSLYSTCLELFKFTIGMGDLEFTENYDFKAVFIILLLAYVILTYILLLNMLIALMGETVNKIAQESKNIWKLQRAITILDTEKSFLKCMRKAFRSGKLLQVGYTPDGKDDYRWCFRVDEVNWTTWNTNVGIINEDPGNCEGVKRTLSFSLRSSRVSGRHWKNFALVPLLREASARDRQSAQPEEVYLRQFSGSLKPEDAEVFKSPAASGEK
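Cells expressing TRPV1 were dye-loaded with Fluo-8 and read kinetically: 10 s baseline, 3 min after compound (agonist portion), then 2 min after EC20 capsaicin (allosteric enhancer portion). Calcium-bound dye fluorescence at 480/520 nm.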
The depositor's hits bear a star; ? = inconclusive; . = not tested or not shown; [ ] = another dose, or the depositor's remark.

SMILES | gsp agonist | ClpP mod | Menin MLL FP FL | D2 PAM | gsp antag | Sfp PPTase inh | TRPV1 PAM
Cc1cc(C)c(C=NNc2nc3c([nH]2)c(=O)n(C)c(=O)n3C)c(C)c1 | -6% | . | . | -3 | 4% | . | .
CC(C(=O)NC1=NCCS1)(C(F)(F)F)C(F)(F)F | -1% | -3.5% | 3.6 | -8 | -6% | 28% | 13
Cc1cccc(C)c1NC(=O)c1sccc1SCC#N | ? | -0.7% | 0.6 | 2 | -5% | 5% | 2
O=C1C=C(c2ccc(-c3ccccc3)c(F)c2)C[C@@H](c2ccc(F)cc2)C1 | . | -0.2% | . | -8 | 10% | . | -5
COc1ccc(C)cc1-n1c(=O)c2ccccc2c2ccccc2c1=O | 1%[15.4 µM] | . | 2.8 | 6 | -12% | 10% | 20
CC(C)NC(=O)COC(=O)c1ccc(Cl)c(S(=O)(=O)N2CCCC2)c1 | -28% | -1.0% | 3.1 | -23 | 10% | -1% | -4
CC(=O)c1cccc(NC(=O)N2CCC(c3nnc(SCC(N)=O)n3C)CC2)c1 | 17% | -1.3% | -4.5 | 10 | 10% | 14% | 9
N#Cc1nc(-c2ccccc2)oc1N1CCCCC1 | -5% | 26% | -0.3 | -15 | 0% | 4% | -11
Cc1ncc(CO)c(/C=N/Nc2cccc(Cl)n2)c1O | ? | -4.5% | 7.4 | 3 | -8% | ? | -25
Cc1c(C(=O)Nc2ccccn2)oc2ccccc12 | ? | -0.5% | -1.2 | -12 | -4% | 3% | -2
COc1ccccc1CNS(=O)(=O)c1cc(C)ccc1OC | ? | -0.1% | 1.6 | -2 | -11% | 11% | 5
CC(C)(Oc1ccc(Cl)cc1)C(=O)Nc1ccc(S(=O)(=O)Nc2ncccn2)cc1 | 22%[15.4 µM] | . | 1.1 | -10 | ? | 25% | -11
COc1cc2ccccc2cc1C(=O)OCC(=O)N1CCOCC1 | -1% | ? | 2.3 | -5 | 3% | -3% | 18
Cc1ccc(CNC(=S)Nc2ccc(C)c([N+](=O)[O-])c2)cc1 | -2% | -1.3% | 2.1 | -12 | -20% | 5% | -18
CC(OC(=O)c1ccc2ncsc2c1)C(=O)NC1CCCCC1C (stereo not given) | ? | -2.5% | . | -22 | -12% | . | -1

Compound profiles (already shown). Order of screens: gsp agonist, ClpP mod, Menin MLL FP FL, D2 PAM, gsp antag, Sfp PPTase inh, TRPV1 PAM
`Cc1ccc(CNC(=S)Nc2ccc(C)c([N+](=O)[O-])c2)cc1` is entered as -2%, -1.3%, 2.1, -12, -20%, 5%, -18
`CC(C)(Oc1ccc(Cl)cc1)C(=O)Nc1ccc(S(=O)(=O)Nc2ncccn2)cc1` is entered as 22%[15.4 µM], ., 1.1, -10, ?, 25%, -11

(cont.)
SMILES | gsp agonist | ClpP mod | Menin MLL FP FL | D2 PAM | gsp antag | Sfp PPTase inh | TRPV1 PAM
O=C(c1ccc(F)c(F)c1)N1CCCc2ccccc21 | -4% | -1.7% | -2.9 | 2 | 7% | 15% | 3
CC(C)(C)C1CCC(C(=O)NNC(=O)c2ccncc2)CC1 (stereo not given) | 1%[15.4 µM] | 1.0% | . | -18 | -2% | . | -12
O=C(Nc1ccc(OC(F)F)c(Cl)c1)c1cccc(OC(F)F)c1 | 12% | -0.3% | 1.1 | -7 | 40µM* | 13% | 7
CC1(C)Cc2c(sc3nc(SCC(=O)NCc4ccco4)n(-c4ccccc4)c(=O)c23)CS1 | ? | -7.5% | 4.4 | -9 | -1% | -13% | -7
Cc1cccc(N2C(=O)C(O)=C(C(=O)c3cccs3)C2c2ccccc2)n1 (stereo not given) | ? | -0.1% | 3.0 | -17 | 3% | 24% | -8
CC(C)CCNC(=O)c1cc(-c2ccco2)nc2ccccc12 | 7% | 4µM* | 2.0 | -6 | -10% | -4% | 5
O=C(CN(CCO)Cc1ccccc1)N1CCN(S(=O)(=O)c2ccccc2)CC1 | -94%[inhibitor] | -0.6% | . | -1 | . | . | .
CCc1nnc(NC(=O)C2CC(=O)N(C3CCCC3)C2)s1 (stereo not given) | 15% | . | -2.6 | -4 | 6% | -4% | 6
COc1ccc(OC)c(C(c2nnnn2Cc2ccco2)N2CCN(C)CC2)c1 (stereo not given) | -35%[inhibitor] | 0.1% | -0.8 | -4 | 8% | -1% | 7
O=C(/C=C/c1ccc(OC2CSC2)cc1)c1ccc(Cl)cc1 | -4%[15.4 µM] | 1.6% | 5.5 | 1 | 7% | -5% | 2
CC(C)(Oc1ccc(Cl)cc1)C(=O)NC1CCCCC1 | 4%[15.4 µM] | 20µM* | . | -17 | -7% | . | 15
CC1(C)CC(=O)c2sc(NC(=O)CN3CCCCC3)nc2C1 | 0% | 16µM* | 0.9 | -18 | -7% | -8% | -21
COCCN1CCn2c(nc3cc(NC(=O)Cn4nc(C)c5ccccc5c4=O)ccc32)C1 | 15%[15.4 µM] | . | 6.9 | -3 | 3% | -14% | .
CC[C@@]1(C(=O)OC)N[C@H](CN(C)C(=O)Nc2ccc(F)cc2)[C@@H]2C(=O)N(Cc3ccccc3)C(=O)[C@@H]21 | . | 1.8% | . | 3 | -4% | . | .
CC(C)C(C(=O)NCc1ccco1)N(CC1CCCO1)C(=O)CNS(=O)(=O)c1ccc(F)cc1 (stereo not given) | -5%[15.4 µM] | . | . | 0 | 5% | 3% | 21
N=C1C(c2nc3ccccc3c(=O)[nH]2)=C(O)CN1CCO | -23% | ? | 2.5 | -2 | -9% | 7% | -7
O=S(=O)(Nn1c(O)c(C=C2N=c3ccccc3=N2)sc1=S)c1ccccc1 | -55%[inhibitor] | 0.8% | 0.6 | -11 | -32% | 8% | 2
CCCCn1c(=O)[nH]c(=O)c2c1nc(COc1ccc(C#N)cc1)n2CCC | -59%[inhibitor] | 1.0% | 0.0 | ? | -10% | 6% | -27
Cc1ccc(S(=O)(=O)N/N=C\c2cc([N+](=O)[O-])ccc2Cl)cc1 | -7% | 0.3% | 1.2 | -29 | -4% | 25% | -4
O=[N+]([O-])c1ccc(C2Oc3ccccc3C3CC(c4ccccc4)=NN32)s1 (stereo not given) | . | . | 16 | . | . | -15% | -11
Cn1c(-c2ccccc2Br)n[nH]c1=S | 28% | -0.7% | . | -19 | 5% | . | .
CC(C)CNc1nc(N)c([N+](=O)[O-])c(N2CCCCCC2)n1 | -1% | . | -6.5 | -3 | -7% | 2% | -7
Cc1nc(NC(=S)NC(=O)c2cncc(Br)c2)ccc1Br | 8%[15.4 µM] | . | 3.7 | -8 | . | ? | 4
O=C(NCc1cccs1)C1CCC(CNS(=O)(=O)c2ccc(Br)s2)CC1 (stereo not given) | -8% | -1.5% | 0.9 | 1 | -6% | 14% | 7
CCC(c1nnnn1C(C)(C)C)N1CCN(c2cc(Cl)ccc2C)CC1 (stereo not given) | 9% | ? | -2.4 | -13 | 3%[15.4 µM] | -9% | 0
Cc1nc(SCc2ccccc2)c([N+](=O)[O-])[nH]1 | -2% | -0.2% | 2.3 | -10 | -7% | 0% | -4
CC(=O)c1ccccc1NC(=O)CSc1nnc(Cc2csc(C)n2)o1 | -12% | -5.2% | . | 13 | -15% | . | 12
COc1ccccc1C(=O)Nc1ccccc1N1CCN(S(C)(=O)=O)CC1 | 1% | -1.4% | -1.0 | 0 | ? | 4% | ?
Cc1ccc(C(=O)N/N=C\c2ccc(-c3ccc(Cl)c(Cl)c3)o2)cn1 | 21% | . | 0.3 | -2 | ? | 1% | 11
CCOc1ccccc1N=CC1=C(O)CC(c2ccccc2)CC1=O (stereo not given) | 5%[15.4 µM] | 1.6% | 11 | -5 | -14% | 22% | 3
CCOc1cc(/C=N\NC(=O)OC)ccc1OC(=O)c1ccco1 | -65%[inhibitor] | . | 0.7 | 3 | 0% | 19% | -29
CN(CC(=O)NC1CCCCCC1)S(=O)(=O)c1cnc[nH]1 | -14% | 0.6% | -0.1 | -5 | 9% | 10% | -3
O=C1OC(c2ccc(F)cc2)=N/C1=C\C=C/c1ccccc1 | -12% | 0.2% | -0.9 | -4 | -6% | -8% | -35
CN(C(=O)CN1C(=O)S/C(=C\c2ccc(Cl)cc2)C1=O)C1CCS(=O)(=O)C1 (stereo not given) | -38%[inhibitor] | -4.1% | -5.3 | -5 | 8% | -1% | -7
Cc1c(Br)ccc(NC(=O)COc2ccccc2C(N)=O)c1C | -2%[15.4 µM] | 3.2% | 2.6 | -12 | 0% | 13% | 0
CC(C)c1ccc(CN2CCC(n3nccc3NC(=O)C3CCCC3)CC2)cc1 | ? | 1.2% | . | -24 | . | . | .
O=C1N(Cc2cccnc2)C[C@@H]2C[C@@H](c3ccc(C(F)(F)F)cc3)N3CCC[C@@]123 | 2%[15.4 µM] | . | 4.8 | -5 | -7% | -4% | -3
COc1ccc2cc(C)c3nnc(SCC(=O)Nc4nc(-c5ccccc5)cs4)n3c2c1 | -16% | -5.2% | 4.8 | -3 | -6% | 79µM* | 8
CC1=CCC(C(=O)O)(C(=O)N/N=C/c2cccs2)C(c2ccc(F)cc2)C1 (stereo not given) | -3% | -1.3% | -0.1 | 2 | 12% | 21% | -3
CC1=C(C(=O)N2CCOCC2)CC(CC(=O)NCCN2CCOCC2)C(=O)N1Cc1ccc(C(C)(C)C)cc1 (stereo not given) | 5% | -1.2% | . | 0 | . | . | .
CCOc1ccc(OCc2ccc(C(=O)NN)o2)cc1 | 14% | -2.0% | -0.2 | -15 | 4% | 15% | -31
Cc1ccc(-c2c(C#N)c(N)n(-c3ccccc3)c(=O)c2C#N)cc1 | ? | 5.3% | 0.2 | 2 | -12% | 10% | -23
CC1=NN(c2ccccc2)C(=O)/C1=C\C=C\c1ccccc1 | 15%[15.4 µM] | . | 4.8 | -3 | -8% | -4% | .
O=C(c1cccc(S(=O)(=O)N2CCCCC2)c1)N1CCOCC1 | -7% | 1.1% | 5.7 | -13 | 20% | 15% | -8
COc1ccc(N2C3=[N+](CCCC3)CC2(C)O)cc1 (stereo not given) | ? | -0.2% | 2.2 | -7 | 5% | 15% | -7
CCn1c(SCC(=O)N2CCCCC2)nnc1-c1ccc(S(=O)(=O)N2CCN(C)CC2)cc1 | 22% | ? | 3.6 | 4 | 4% | 3% | -11
COc1ccccc1/C=C/C=N/n1c(-c2ccccc2)n[nH]c1=S | -2%[15.4 µM] | . | -0.9 | -2 | -9% | -58% | .
